# Source: PubChem (several laboratories)
# Ecoli growth – E. coli growth inhibition; Escherichia coli growth, OD600, 23 h; stronger effect = lower value; OD600 absorbance (test concentration not listed); 0.21% of 330,000 active; AID 1053175;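 active = OD600 absorbance below the run mean of sample wells minus 3.6 SD, in any replicate, cut at about 0.56 in these data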;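 also: stock transfer was 300 nL into about 60 µL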
# B2AR ag – agonists of human beta-2 adrenergic receptor inducing internalization. response, % (no concentration beside the values). 0.43% of 340,000 active. AID 504454. P07550. Am2.2-beta2AR cells, FAP receptor internalization, flow cytometry; reference of the scale not given here;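 active = response above a set limit, near 3 SD of response in nonfluorescent compounds, cut at about 42% in these data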;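 also: stock transfer was 100 nL into about 11 µL; a reference agonist was the positive control; negative values mostly stem from fluorescent compounds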
# Target sequence (P07550 whole entry, looked up): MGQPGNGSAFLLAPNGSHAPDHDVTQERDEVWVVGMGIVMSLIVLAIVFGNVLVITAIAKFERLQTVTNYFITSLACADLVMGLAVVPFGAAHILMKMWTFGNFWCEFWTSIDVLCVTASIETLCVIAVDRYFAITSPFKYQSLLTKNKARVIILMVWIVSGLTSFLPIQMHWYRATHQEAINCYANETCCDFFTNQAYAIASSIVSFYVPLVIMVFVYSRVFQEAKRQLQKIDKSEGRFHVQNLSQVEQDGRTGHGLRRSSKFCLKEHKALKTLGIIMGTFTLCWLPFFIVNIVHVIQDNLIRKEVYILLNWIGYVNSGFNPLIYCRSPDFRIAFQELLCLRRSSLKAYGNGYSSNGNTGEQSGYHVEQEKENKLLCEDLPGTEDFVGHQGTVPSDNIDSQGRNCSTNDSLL
# FGF22 binding – shifts melting point of recombinant human FGF22; calls only at 9.99 µM; 1.5% of 340,000 active; recombinant FGF22 thermal shift, SYPRO orange fluorescence; percent of sucrose octasulfate shift, DMSO zero; Q9HCT0; AID 651658;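 active = melting point raised past a set limit in the mean and every replicate; inconclusive = no clear call; three in four hits are not shown here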
# Target sequence (Q9HCT0 whole entry, looked up): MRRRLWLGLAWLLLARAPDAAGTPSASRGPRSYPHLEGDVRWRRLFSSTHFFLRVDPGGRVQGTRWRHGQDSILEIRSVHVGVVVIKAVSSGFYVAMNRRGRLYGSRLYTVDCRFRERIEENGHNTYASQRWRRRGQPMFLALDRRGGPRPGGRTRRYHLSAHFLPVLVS
# LANA-H2A inh – blocks KSHV LANA binding to histone H2A/H2B; Q9QR71; cell-free LANA-H2A/H2B peptide, fluorescence polarization; inhibition, % (concentration not given with the values); 0.6% of 320,000 active; AID 2629; in the data active = inhibition mostly above about 10%, no sharp cut-off; inactive = mostly below about 6.7%;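 also: stock transfer was 7.5 nL into about 10 µL; 0% = median of vehicle wells and 100% = median of positive control wells; one replicate is shown; the record names a cut of 25% in any replicate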
# HNF4A DNA FP – change in binding of human HNF4 alpha to DNA; P41235; HNF4a-FITC DNA binding, fluorescence polarization, 1 h; activity change, % at 10 µM; 0.3% of 360,000 active; in the data active = activity change above about 30%, passing the limit was not always enough;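 also: controls were the assay level and a saturating level of protein; the project sought stronger binding though the title names inhibitors; some compounds called inactive have numbers as strong as hits; positive values seem to mean higher polarization but the record does not say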
# ALR H2O2 inh – inhibitors of human sulfhydryl oxidase ALR; 3.8% of 290,000 active; inhibition, % (no concentration beside the values); P55789; purified ALR, DTT oxidation, H2O2 HRP-luminol luminescence;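 active = mean and each replicate at 75% or more; inconclusive = only one of the two met; inactive = neither met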;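 also: stock transfer was 7.5 nL into about 7.5 µL; 0% = neutral wells and 100% = wells with inactivated enzyme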
# UCH37 DUB inh – human UCH37 deubiquitinating enzyme inhibition; Q9Y5K5; inhibition, % (test concentration not listed); purified proteasome/UCH37, Ub-AMC cleavage fluorescence; 0.33% of 330,000 active;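 active = mean of two replicates above 20%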;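 also: 0% = compound-free wells with enzyme and 100% = wells lacking proteasome; stock transfer was 100 nL into about 20 µL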
# Target sequence (Q9Y5K5 whole entry, looked up): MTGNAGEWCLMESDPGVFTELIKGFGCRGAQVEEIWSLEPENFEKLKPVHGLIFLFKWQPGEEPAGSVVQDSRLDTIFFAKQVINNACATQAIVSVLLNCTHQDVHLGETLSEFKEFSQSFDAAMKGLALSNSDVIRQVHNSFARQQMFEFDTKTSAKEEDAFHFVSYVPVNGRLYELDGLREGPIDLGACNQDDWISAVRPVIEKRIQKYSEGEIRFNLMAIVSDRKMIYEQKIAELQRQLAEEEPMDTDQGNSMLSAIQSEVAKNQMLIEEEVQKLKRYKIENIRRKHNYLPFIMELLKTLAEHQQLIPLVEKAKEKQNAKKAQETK
#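 assay system = human UCH37 enzyme supplied as purified proteasome complex | amount = proteasome at 0.15 nM in the dispensed enzyme solution | schedule = 30 min compound-proteasome preincubation then 25 min substrate reaction, room temperature | measured by = fluorescence, ex 355 nm, em 460 nm | benchmarks = no-proteasome wells (full inhibition) and compound-free wells (no inhibition)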
# The depositor's hits bear a star; i = inactive; ? = inconclusive; / = not tested or not shown. An excerpt. The share of hits here may be higher or lower than overall.
SMILES	Ecoli growth	B2AR ag	FGF22 binding	LANA-H2A inh	HNF4A DNA FP	ALR H2O2 inh	UCH37 DUB inh
NC(=NC(=O)c1ccccc1)C1=C(O)CCC1=O	0.74	-4	/	-7.0	2.8	-1	-6.2
CCOC(=S)N/C(=N\S(C)(=O)=O)c1ccccc1	/	1	i	-7.9	3.8	-1	/
O=C(Nc1ccc(Cl)cc1)c1cccc(N2C(=O)C3C4CCC(C4)C3C2=O)c1 (centres undefined)	0.66	8	/	1.1	0.3	-5	4.8
CCSc1nnc(NC(=O)c2ccccc2C)s1	0.67	-4	i	-1.3	1.3	12	5.8
O=C(CN1CCN(Cc2ccc(F)cc2Cl)C1=O)NCCc1ccc(Cl)cc1	0.69	1	/	0.9	2.8	/	0.2
Cc1ccc2cc(C3CC(c4ccco4)=NN3C(=O)CCCC(=O)O)c(Cl)nc2c1 (centres undefined)	0.67	-3	i	8.6	-3.6	-2	-2.3
Cn1c(=O)[nH]c(=O)c2c1nc1n2CCN1Cc1ccccc1	0.66	-2	/	-0.2	-1.2	-6	0.5
O=C(Nc1ccccc1)Nc1nnc(/C=C/c2ccccc2Cl)s1	/	5	i	-1.9	0.4	-9	/
COc1ccccc1N(C)S(=O)(=O)c1ccc(Cl)c(C(=O)NCc2ccco2)c1	0.69	-12	i	3.8	0.1	1	-0.6
O=C(O)CC(Cc1ccccc1)C(=O)NCC12CC3CC(CC(C3)C1)C2 (centres undefined)	0.69	2	/	3.7	-2.9	1	2.1
CCn1c(CSc2nc(C)cc(C)n2)nnc1SCC(N)=O	0.66	-2	i	2.8	0.4	2	-0.6
Nc1nsnc1C(=O)NCCO	0.66	-3	/	0.6	1.5	0	-12
S=C(Nc1cccc(Cl)c1)NC1CC2CCCC(C1)N2C1CCCC1 (centres undefined)	0.66	11	i	0.7	-0.1	-4	1.9
CCc1nnc(NC(=O)CSc2nc3ccccc3s2)s1	0.67	11	/	10	1.2	33	0.5
O=c1c2[nH]c3ccc(F)cc3c2ncn1CCCn1ccnc1	0.72	-10	/	-0.8	-0.7	-8	-5.1
O=C(COC(=O)c1ccc([N+](=O)[O-])o1)Nc1ccc(N2CCOCC2)cc1	0.61	9	i	-3.8	-2.0	16	17
Cc1cc(NC(=O)c2ccc(NC(=O)c3cccs3)cc2)no1	0.59	-13	/	-0.6	0.5	44	-0.5
Cc1ccc2c(c1)N(CC(=O)NC1CCCC(C)C1C)C(=O)c1cccnc1O2 (centres undefined)	0.7	-1	i	1.1	2.2	74	3.7
COc1cccc(NC(=S)Nc2cccnc2)c1	0.71	2	/	4.2	-0.7	0	3.5
O=C(OCC(=O)C12CC3CC(CC(C3)C1)C2)c1ccccc1O	0.71	1	i	-1.1	0.7	2	0.7
CC(C)C(=O)Nc1ccc(NC(=S)NC(=O)c2ccccc2F)cc1	0.7	-12	i	-3.5	0.3	2	3.0
COc1ccccc1N1CCN(c2ccnc3cc(Cl)ccc23)CC1	0.68	8	i	-6.0	-2.5	2	0.6
COc1ccc(C(=S)N2CCCC2)cc1	0.7	8	/	-4.9	0.5	-3	3.1
CCOC(=O)/C(=C/c1ccc(F)cc1)NC(C)=O	0.65	-2	/	-6.7	-1.1	-1	0.8
CCOc1ccc(CNc2ccc(S(N)(=O)=O)cc2)cc1	0.66	9	i	-2.6	0.3	/	2.8
CC(=O)Nc1ccc(S(=O)(=O)Oc2ccc(N3C(=O)C4CCCCC4C3=O)cc2)cc1 (centres undefined)	0.69	-1	/	-1.5	-5.0	-5	1.7
CCOCCCNC(=O)CCCOc1ccccc1	0.67	2	/	5.7	2.3	-3	2.8
NS(=O)(=O)c1ccc(CNC(=O)c2ccc(S(=O)(=O)C(F)F)cc2)cc1	0.65	-3	i	1.3	2.2	0	1.9
COCCNC(=O)C(=O)N/N=C/c1ccccc1C(F)(F)F	/	3	/	-7.0	-11	-6	/
c1cc(Nc2ncnc3sc4c(c23)CCC4)ccn1	0.73	-2	i	13	0.0	/	-239
COc1cc(-c2cc(C(=O)Nc3ccc(O)cc3)c3ccccc3n2)cc(OC)c1OC	0.73	12	i	-5.9	3.3	/	7.2
CCCCC(=O)Nc1ccc(C(=O)N2CCCC(C(=O)OCC)C2)cc1 (centres undefined)	0.7	61*	/	-4.7	-1.3	-8	5.5
COc1cc(NC(=S)NC(=O)c2ccccc2C)ccc1NC(=O)c1cccs1	0.75	4	/	-5.2	-0.8	-11	2.9
Cn1ncc2c(=O)[nH]c(N)nc21	0.68	-8	i	/	0.8	/	1.4
COc1cc(OC)c(NC(=O)CNC(=O)Cn2ccc3ccccc3c2=O)cc1Cl	0.65	6	i	-3.3	3.4	0	-2.8
COC(C[C@@H](O)[C@@H](C)[C@H](O)COCc1ccccc1)OC	/	-1	i	/	4.9	/	0.8
CCOc1ccc(-n2c(=S)sc3c(=O)n(-c4ccc(F)cc4)c(SCC(=O)O)nc32)cc1	0.67	0	/	-2.9	1.5	/	11
COc1cc(C2NC(=O)NC(c3ccccc3)=C2C(C)=O)c(Br)cc1OCC(N)=O (centres undefined)	0.66	7	i	6.0	1.4	-10	1.6
NS(=O)(=O)c1ccc(CNC(=O)Cc2ccccc2F)cc1	0.69	-2	i	2.4	-0.3	9	1.3
CCS(=O)(=O)N1CCC(C(=O)Nc2cc(C)ccc2O)CC1	0.72	-11	i	1.4	-2.9	2	0.7
COc1cc(C(=O)OCCC(C)C)cc(OC)c1O	0.69	9	i	-0.4	1.4	22	8.4
CCOc1ccc2oc(C(=O)N(CCOC)c3c(N)n(CC(C)C)c(=O)[nH]c3=O)c(C)c2c1	0.66	-2	i	4.2	-1.8	-5	-2.1
CCN(C(=O)CSc1n[nH]c(-c2cccs2)n1)C1CCS(=O)(=O)C1 (centres undefined)	0.7	-1	i	-1.0	1.0	/	2.3
CC(OC(=O)Cc1ccsc1)C(=O)Nc1ccc(C(N)=O)cc1 (centres undefined)	0.68	-12	i	/	2.5	/	0.8
CCOC(=O)c1c(-c2ccc(C)o2)csc1NC(=O)COC(=O)c1cccs1	0.72	8	/	-3.2	3.8	2	0.2
CC1Cc2ccccc2N1C(=O)COC(=O)c1cc(Br)ccc1O (centres undefined)	0.69	-3	/	-3.2	0.1	-4	-2.0
O=C(Oc1ccc(Br)cc1)c1cncc(Br)c1	0.69	1	/	-0.2	-2.5	-2	1.7
Cc1ccc(S(=O)(=O)N2CCOCC2)cc1NC(=O)COC(=O)C1COc2ccccc2O1 (centres undefined)	0.7	1	i	5.3	6.4	-35	5.6
CCOC(=O)c1ccc(S(=O)(=O)Nc2ccccc2-c2nnn(CC)n2)cc1	0.66	5	i	/	-1.1	/	1.5
O=C(Nc1ccc2c(c1)OCO2)C1CCCN1C(=O)OCc1ccccc1 (centres undefined)	0.75	-1	/	-3.3	2.1	-4	1.0

# Next compounds follow.
SMILES	Ecoli growth	B2AR ag	FGF22 binding	LANA-H2A inh	HNF4A DNA FP	ALR H2O2 inh	UCH37 DUB inh
O=C(CSc1ncc(-c2ccc(F)cc2)[nH]1)N1CCCCC1	0.74	-5	/	-11	2.8	25	4.7
O=C(CNC(=O)c1cccs1)NCC(=O)OCc1cccc(Cl)c1	0.59	9	/	-1.7	-2.6	2	1.4
Cc1cccc2c(N=O)c(O)[nH]c12	0.7	1	i	-2.3	1.2	-7	3.0
CCOC(=O)N1CCN(S(=O)(=O)c2ccc(OC)c(Br)c2)CC1	0.68	-6	i	-3.3	1.7	-1	5.9
COc1ccc(C(=O)NC=C2C(=O)OC(C)(C)OC2=O)cc1	0.68	4	i	-0.2	1.2	27	0.4
N#Cc1c(N)nc(N)nc1Nc1ccc(Br)cc1	/	-4	i	2.8	-2.7	/	/
Cc1csc(CNC(=O)CC2C(=O)NCCN2Cc2ccc(F)cc2Cl)n1 (centres undefined)	0.68	-1	i	1.6	-1.2	-4	-3.3
CCN(CC)S(=O)(=O)c1ccc2oc(C(=O)NCCN3CCOCC3)c(C)c2c1	0.65	3	i	2.1	0.6	-5	2.3
CC(=O)CC(=O)NC(=NC1CCCCC1)Nc1nc(C)cc(C)n1	0.7	-6	/	-0.8	-0.6	14	1.5
Cc1ccc(CCN2CC(C(=O)NCCCN3CCN(C)CC3)CC2=O)cc1 (centres undefined)	0.76	-1	i	6.4	-4.6	-3	6.0

# Reprinted from the entries so far, 2 compounds:
SMILES	Ecoli growth	B2AR ag	FGF22 binding	LANA-H2A inh	HNF4A DNA FP	ALR H2O2 inh	UCH37 DUB inh
CC(=O)CC(=O)NC(=NC1CCCCC1)Nc1nc(C)cc(C)n1	0.7	-6	/	-0.8	-0.6	14	1.5
Cc1ccc(CCN2CC(C(=O)NCCCN3CCN(C)CC3)CC2=O)cc1 (centres undefined)	0.76	-1	i	6.4	-4.6	-3	6.0

# Remaining list, next part.
SMILES	Ecoli growth	B2AR ag	FGF22 binding	LANA-H2A inh	HNF4A DNA FP	ALR H2O2 inh	UCH37 DUB inh
COc1ccc(C(=O)N(C)CCCC2CCCC2)cc1OC1CCN(C(C)=O)CC1	0.7	-8	i	5.6	4.8	-1	4.8
CC1CCN(C(=O)C2CCN(S(=O)(=O)c3cc(Cl)ccc3Cl)CC2)CC1	0.67	-8	i	2.7	2.7	-9	-1.3
CCOC(=O)c1cc(-c2ccccc2)nn1CC1CC(c2cccnc2)=NO1 (centres undefined)	0.66	-8	i	1.0	1.3	-16	-1.8
CC(=O)Nc1ccc(NC(=O)CSCc2ccccc2Cl)cc1	0.69	-14	i	2.8	5.0	?	7.1
Cc1ccc(-c2csc(N3C(=N)SCC3=O)n2)cc1	0.73	/	i	2.7	/	2	-44
CCCCOC(=O)CSc1nc(N)c(C#N)c(-c2ccc(OC)cc2)c1C#N	0.76	25	/	-0.7	-0.3	-5	6.1
COc1ccc(N(CC(=O)Nc2ccccc2C(F)(F)F)C2=NC3CS(=O)(=O)CC3S2)cc1 (centres undefined)	0.73	8	i	-1.3	0.1	97*	3.4
O=C1CC(N2CCN(c3cccc(C(F)(F)F)c3)CC2)C(=O)N1c1ccc(F)cc1 (centres undefined)	0.72	1	/	1.4	5.6	/	4.1
COc1ccc(C(CNC(=O)c2oc3cc(C)c(C)cc3c2C)N2CCCCC2)cc1 (centres undefined)	0.63	13	i	3.4	2.8	-4	1.1
CCc1nnc(NC(=O)c2ccc(S(=O)(=O)N3CCCC(C)C3)cc2)s1 (centres undefined)	0.64	1	i	-0.7	5.6	3	1.9
COc1cccc(OC)c1C(=O)Nc1ccc(CN2CCOCC2)cc1	0.73	-6	/	-1.6	-1.3	-6	6.5
CC(C)(C)c1ccc(CS(=O)(=O)CC(O)CN2CCCC2=O)cc1 (centres undefined)	0.72	-10	i	-0.1	1.3	7	-1.1
Cc1ccc(N(Cc2cc3cccc(C)c3[nH]c2=O)S(=O)(=O)c2ccccc2)c(C)c1	0.71	-2	/	2.2	4.5	-9	-3.3
CC(C(=O)NC(C)(C)C)N(Cc1cccs1)C(=O)CCN1CCc2ccccc21 (centres undefined)	0.71	4	i	2.3	-0.8	/	-1.0
Nn1c(-c2ccccc2Cl)nnc1-c1ccccc1Cl	0.73	1	/	1.3	2.6	-17	3.0
CC1CCCC(C)N1C(=O)CSc1nnc(-c2ccco2)n1C (centres undefined)	0.68	-3	i	2.3	-1.9	2	0.6
COc1ccc(S(=O)(=O)N2CCCC2)cc1C(=O)N1CCOCC1	0.69	0	i	-2.4	1.8	7	2.3
COc1cc(/C=C/C(=O)O)cc(S(=O)(=O)Nc2ccccc2SC)c1OC	/	-4	i	-3.9	-4.1	-3	3.2
Cc1c(Cl)cccc1NC(=S)N(CCCN1CCOCC1)Cc1ccco1	0.72	2	i	-0.3	-2.5	-15	0.7
COc1ccc(S(=O)(=O)Nc2ccccc2SC)cc1C	0.67	-2	/	-3.3	0.2	2	5.6
CCSC1=NN2CCS(=O)(=O)N=C2S1	0.62	4	i	24	0.7	-1	2.9
